Bioassay records as filed in PubChem.
Mtb hypoxia inh: reduces hypoxia-regulated biosensor signal in M. tuberculosis. M. tuberculosis hypoxia-regulated fluorescent reporter, fluorescence. fluorescence inhibition, % (concentration not given with the values). 300,000 tested, 0.1% active;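 active means 35 to 45% if threefold the growth effect, above 45% if 1.5-fold the growth effect; inactive means the rest, general growth blockers included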;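 further: wells of about 50 µL received 100 nL stock; 0% = vehicle wells and 100% = reference inhibitor wells; whole bacteria with a GFP reporter of the hypoxia response; strong numbers were not always called active; many hits fall short of the cut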
BJeLR viability: BJeLR cell viability loss; inhibition, % (test concentration not listed); 300,000 tested, 0.17% active; BJeLR (HRASV12) viability, CellTiter-Glo ATP luminescence, 48 h; reference of the scale not given here;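 active means replicate mean above 50%; inconclusive means above 50% but judged a plate artefact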;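 further: 50 nL library stock added to about 25 µL; numbers are from one replicate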
ugtP null kill: growth inhibition of S. aureus ugtP deletion strain | S. aureus RN4220 ugtP deletion, OD600 growth, 16 h; some inactives read as strong as hits | 330,000 tested, 0.54% active | growth inhibition, % (no concentration beside the values);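 active means z-score under -3 and OD600 up to 0.15 on both plates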;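 further: plate controls were untreated wells for no effect and antibiotic for full effect; wells of about 80 µL received 100 nL stock; the first replicate is given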
PrP 5UTR inh: inhibition of PrP 5' UTR reporter expression; 340,000 tested, 0.35% active; inhibition, % (test concentration not listed); AID 488862; cell-based PrP 5' UTR mRNA reporter, plate reader;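 active means every replicate at 50% or more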;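 further: 0 = median of the neutral control wells; tested in H4 reporter cells; numbers are from one replicate; inactives centre near -14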
Autofluor counter: compound fluorescence in toxin protease inhibitor counterscreen; compound autofluorescence counterscreen, microsphere flow cytometry; hits give high values; 360,000 tested, 3.1% active; fluorescence intensity (concentration not given with the values); AID 624483;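 active means at least 3 SD above the mean of all compounds, about 16000 in these data; inconclusive means too few beads counted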;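 further: 100 nL of 1 mM stock went into each well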
Sa RN4220 lethal: kills Staphylococcus aureus RN4220 | S. aureus RN4220 growth, OD600, 16 h | inhibition, % (test concentration not listed) | 330,000 tested, 0.33% active | AID 1259311;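 active means z-score of -3 or lower and OD600 up to 0.18 on both plates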;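 further: plate controls were untreated cells for no effect and reference antibiotic for full effect; stock transfer was 100 nL into about 80 µL; one replicate is shown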
Mtb hypoxia inh growth: further read-out of Mtb hypoxia inh, marked with its call; growth inhibition, %; measured here: M. tuberculosis growth (absorbance);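 0% = vehicle and 100% = reference antibiotic; read after six days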
* marks the source's active call; other numbers are inactive results; ? = inconclusive; · = no result given.

Each structure is followed by: Mtb hypoxia inh, Mtb hypoxia inh growth, BJeLR viability, ugtP null kill, PrP 5UTR inh, Autofluor counter, Sa RN4220 lethal
CC(=O)C1=C(O)C(=O)N(c2ccccn2)C1c1cccc(F)c1 (stereo unspecified)
  6.5, 3.7, 0.5, 0.6, -18.2, 3581, -1.4
Cc1cc(=O)oc2cc(OCC(=O)OCC(=O)NC(C)C)ccc12
  1.8, 11.3, -6.5, 3.1, -9.7, 4187, 9.1
c1ccc2c(c1)nc1n2CCN1
  14.7, -38.4, 1.3, 4.4, -16.5, 3232, 12.1
CCC1(C)CN=C(c2ccccc2)NC1 (stereo unspecified)
  1.7, 9.4, ·, -1.9, -15.9, 3808, 5.8
COc1ccc(CCNC(=O)c2ccc(N3CCCC3=O)cc2)cc1
  ·, ·, -2.3, 5.1, -32.6, ·, 0.7
COc1cccc(-c2cc(C(=O)NCC3CCCO3)c3ccccc3n2)c1 (stereo unspecified)
  10.3, 5.8, 0.3, 1.9, -8.0, 2552, 5.0
O=[N+]([O-])c1ccc(O)c(C=NNc2ccccn2)c1
  0.8, -3.7, ·, -3.9, ·, ·, 39.2
COc1cc2ccccc2cc1C(=O)Nc1ccc(N2CCN(C(=O)C(C)C)CC2)cc1
  0.5, 11.8, -11.3, 0.0, -15.3, 5287, 3.0
O=C(CN(c1cccc(Cl)c1)S(=O)(=O)c1ccc(Cl)cc1)NCc1ccccn1
  -1.2, -18.5, -4.5, -12.7, -2.2, ·, -1.6
CC(C)C(=O)N1CCN(c2ccccc2NC(=O)c2ccc(Br)o2)CC1
  16.1, 12.6, ·, -1.7, -3.1, 3955, 7.8
CC(=O)C(=NNc1ccc(C)cc1)Sc1nnc(CCc2ccccc2)n1-c1ccccc1
  -12.2, -1.4, ·, 4.6, ·, ·, -1.6
O=S(=O)(NCCNS(=O)(=O)c1c(F)cccc1F)c1ccc2c(c1)OCCO2
  19.0, 8.6, ·, 2.9, -32.7, 4177, 5.9
Cc1cc(-c2c(C)[nH]n(-c3ccc(Cl)cc3)c2=O)n(-c2ccccc2)n1
  -8.9, -6.1, 0.7, 2.9, -28.5, 8694, 1.9
COc1ccc(CN2CCc3ccccc3C2)c(OC)c1
  2.1, -6.9, 5.6, -0.5, -12.5, 3618, 4.9
CN(C)c1ccc(C=NNC(=O)Cn2nnc3ccccc32)cc1
  0.4, 5.3, ·, 6.7, ·, ·, 1.7
Cc1cc(=O)oc2cc(NC(=O)C(C)Oc3ccc(F)cc3)ccc12 (stereo unspecified)
  3.3, 8.8, 3.0, -0.6, -49.1, 6303, 1.4
CC1CCCC(NC(=O)c2ccc3c(c2)OCO3)C1C (stereo unspecified)
  23.8, 27.0, -2.9, 2.5, -33.4, ·, 0.7
O=C(COc1ccccc1Cl)NC1CC1
  4.8, 0.5, -6.4, 11.7, -14.8, 6239, 4.9
COc1ccc(N2CCN(C(=O)c3ccccc3F)CC2)c([N+](=O)[O-])c1
  16.9, 15.0, 7.2, 7.8, -39.0, 3803, 10.6
Cc1nc2ncnn2c(N2CCN(C(=O)c3cccc(F)c3)CC2)c1Cc1ccccc1
  0.3, 3.7, 4.6, 5.8, ·, 11446, 2.6
CC1(C)C(=O)NCCN1C(=O)c1ccc2nc(Cc3ccccc3F)oc2c1
  3.2, 10.3, -0.9, 2.1, -11.6, 6130, 1.5
O=C(Nc1ccc(Cl)c(Cl)c1)Nc1nc(-c2ccccc2)cs1
  ·, ·, -0.1, ·, -10.4, 10272, ·
CCCCc1c(O)nc(SCC(=O)c2ccccc2)n(-c2ccccc2C)c1=O
  9.6, 22.4, -0.9, 1.7, -19.8, 2987, -1.6
COc1cccc(-c2nnc(-c3ccc4ccccc4c3)o2)c1
  3.3, 3.4, ·, 3.0, -27.2, 3505, -1.6
Cn1c(=O)c2c(ncn2CC(=O)OCC(=O)NCc2ccccc2Cl)n(C)c1=O
  13.0, 1.5, 2.2, 14.5, -16.5, 2009, 4.0
CCOC(=O)c1ccc(N2C(=O)CC(N3CCC(O)(c4ccc(Br)cc4)CC3)C2=O)cc1 (stereo unspecified)
  ·, ·, -5.0, -5.2, -9.0, 2627, 6.5
COc1ccc(-c2nc(C)sc2C)cc1
  -4.0, -1.3, 8.3, -3.2, -15.7, 2024, 12.4
S=C(NCc1ccc(Cl)c(Cl)c1)NCc1ccco1
  -6.9, -1.9, 1.4, -11.3, -14.6, 5338, -9.6
COC(=O)CSc1ncccc1-c1nc2ccccc2[nH]1
  3.5, -0.4, 1.2, -6.6, -11.4, 7985, -2.3
Cc1cccc(Cn2nc(C)c(NC(=O)c3ccc(F)cc3)c2C)c1
  14.7, 2.9, -3.7, 3.8, -6.8, 3492, 2.3

The listing continues.
Each structure is followed by: Mtb hypoxia inh, Mtb hypoxia inh growth, BJeLR viability, ugtP null kill, PrP 5UTR inh, Autofluor counter, Sa RN4220 lethal
Cc1c(C(=O)NCCN2CCOC2=O)oc2c(F)cccc12
  -7.1, -9.7, -1.5, 1.9, -5.2, 4581, 1.3
CCn1c(SCC(=O)Nc2ccc(S(N)(=O)=O)cc2)nnc1-c1cccc(OC)c1
  ·, ·, -4.3, 9.6, -18.6, 6004, -3.8
COCCN(C(=O)CSc1nc2ccccc2s1)c1c(N)n(Cc2ccccc2)c(=O)[nH]c1=O
  9.0, 7.6, ·, -1.8, -10.4, ·, 4.5
CN(C)S(=O)(=O)N1CCC(n2nccc2NC(=O)CCCc2ccccc2)CC1
  6.8, -3.2, -5.1, 4.8, -15.8, 6739, 3.2
CCOc1ccc(S(=O)(=O)N(CC(=O)N2CCC(C(N)=O)CC2)c2ccc(F)cc2)cc1
  -1.1, -5.3, 1.3, -6.0, 1.4, 4772, 0.6
CC(=O)c1cccc(NC(=O)c2cccc(S(=O)(=O)N(C)C)c2)c1
  ·, ·, -6.7, 12.2, -26.5, 3353, 2.8
CC1CCN(C(=O)c2cc(-c3ccc4c(c3)OCO4)on2)CC1
  0.7, 0.6, -12.6, 2.7, -28.9, 3924, 6.6
COc1ccc(N=c2oc3ccccc3cc2C(=O)Nc2ccccn2)cc1OC
  14.3, 2.2, 5.8, -4.8, ·, ·, 3.1
Cc1ccc(S(=O)(=O)N2CCCCC2)cc1NC(=O)COC(=O)c1ccccc1F
  -2.3, 5.9, 5.3, -1.4, -6.9, 4318, 3.8
CCN(CC)S(=O)(=O)c1ccc(O)c(NC(=O)CN2CCc3ccccc3C2)c1
  15.8, 3.3, 4.3, 4.0, -24.0, 4423, 1.8
N#CCCn1cc(C(=O)Nc2ccccc2Br)c(-c2cccs2)n1
  4.5, 12.9, -4.9, 9.9, -30.0, 2300, -2.3
O=C(Nc1cccc(Cl)c1N1CCOCC1)c1cc([N+](=O)[O-])ccc1N1CCOCC1
  11.0, 8.3, -3.3, 2.7, -4.8, 5688, -1.7
O=C(Nc1ccccc1-c1nnc(SCc2ccc(Cl)cc2)o1)c1ccccc1
  2.7, 4.8, 0.2, -12.2, -0.9, 22262*, -1.1
CC(=O)NCC(=O)OCC(=O)Nc1nc(-c2ccccc2)cs1
  -3.0, 1.6, 8.3, 2.0, -28.2, 2039, 4.0
CC(C)c1ccc(S(=O)(=O)Nc2ccc(SC(F)F)cc2)cc1
  16.1, 5.6, 2.2, -18.4, -17.4, 2265, -1.4
N#CCSc1nnc(Cc2ccc3c(c2)OCO3)o1
  0.3, 0.6, -5.5, -4.5, -22.8, 4569, -7.0
Cc1ccc(N2CC(C(=O)Nc3nnc(SCCN4CCOCC4)s3)CC2=O)cc1C (stereo unspecified)
  -0.1, -3.4, -21.0, -0.2, -0.6, 5311, -0.1
OCc1ccccc1OCCCOc1cccc2cccnc12
  8.2, 0.4, 2.8, 0.9, -45.5, 4103, 5.1
CN1OCC2COc3ccc4ccccc4c3C21 (stereo unspecified)
  12.6, -2.0, ·, -3.1, ·, ·, 6.5
CC(CCC(=O)O)(c1ccc(O)cc1)c1ccc(O)cc1
  8.8, 3.3, ·, 3.2, -22.6, 5376, 4.8
Cc1ccc(S(=O)(=O)N(C)C)cc1NC(=O)COC(=O)CC1CCCC1
  0.8, -5.4, -5.5, 1.1, -24.1, 4553, -0.9
CCOC(=O)C1=C(C)N(C)C(=O)NC1c1cc2c(cc1[N+](=O)[O-])OCO2 (stereo unspecified)
  -8.6, 8.9, -5.3, -1.7, -10.0, 5225, 1.2
O=C(COc1ccccc1-c1ccccc1)c1ccccc1
  4.7, 3.4, -7.8, -1.0, -12.3, 10827, -1.8
COCC(=O)NN=Cc1ccc(OC/C=C/c2ccccc2)c(OC)c1
  1.9, -2.1, ·, 13.1, ·, ·, 3.9
CC(C)Nc1nc(-c2ccccn2)nc(-c2ccccc2)c1C#N
  ·, ·, 4.4, ·, 9.5, 4770, ·
Cc1nc(SCC(=O)NCCc2ccccc2)nc(C)c1C
  17.7, 6.6, -1.9, 13.3, -4.6, 2621, 17.7
CCOC(=O)/C(C#N)=C1\C=CN(C)C(C)=N1
  4.8, 1.9, -14.8, 2.6, -26.6, 3228, 2.0
CC(=O)c1cccc(N(CC(=O)Nc2ccc(S(=O)(=O)N3CCCC3)cc2)S(C)(=O)=O)c1
  2.9, -2.1, -0.6, -2.0, -12.9, 5770, -1.0
COc1ccc(-c2oc3ncn4nc(COc5ccccc5)nc4c3c2-c2ccc(OC)cc2)cc1
  -5.3, -9.7, -2.8, -1.8, -6.4, 15978, -1.4
CCCCC(C(=O)NC1CCCC1)N(C(=O)c1snc(C(N)=O)c1N)c1ccc(C)cc1 (stereo unspecified)
  -5.3, -1.3, -6.5, 2.2, -3.0, 2761, -2.9

2 compounds from above, limited to PrP 5UTR inh, Mtb hypoxia inh growth and ugtP null kill.
smiles	PrP 5UTR inh	Mtb hypoxia inh growth	ugtP null kill
CCCCC(C(=O)NC1CCCC1)N(C(=O)c1snc(C(N)=O)c1N)c1ccc(C)cc1 (stereo unspecified)	-3.0	-1.3	2.2
S=C(NCc1ccc(Cl)c(Cl)c1)NCc1ccco1	-14.6	-1.9	-11.3

The list continues:
Each structure is followed by: Mtb hypoxia inh, Mtb hypoxia inh growth, BJeLR viability, ugtP null kill, PrP 5UTR inh, Autofluor counter, Sa RN4220 lethal
CCOC(=O)c1nc(C)n(-c2ccc([N+](=O)[O-])cc2)n1
  7.9, 3.9, -1.1, 4.9, -15.5, 3955, 7.1
COc1cccc(Nc2ncnc3onc(-c4ccccc4OC)c23)c1
  10.3, 8.5, -6.6, -6.2, -6.2, 4261, 3.7
CCCn1cnc2cc(NCc3cccs3)ccc21
  -10.2, 4.3, 6.4, 1.0, -40.4, 4893, 3.6
COc1ccc(NC(=O)CN(C)CC(=O)Nc2ccc(Cl)cc2[N+](=O)[O-])cc1
  10.8, 15.0, 2.1, 6.4, -8.9, 4135, 14.5
NNC(=O)c1oc2nc(-c3ccccc3)cc(-c3ccccc3)c2c1N
  3.9, 5.1, 7.4, -0.7, 3.8, 16851*, 11.0
CCCCCCC1CC(C)(C(C)=NNC(N)=O)OC1=O (stereo unspecified)
  6.4, 7.3, ·, 3.9, ·, ·, 1.8
COc1cccc(NC(=O)CCC2CCN(Cc3nccs3)CC2)c1
  1.5, 7.8, -2.6, 4.4, 2.1, ?, 2.3
Cc1cc(=O)[nH]c(N/N=C/c2cccc(Br)c2)n1
  ·, ·, -2.2, ·, -16.6, 3595, ·
CSCCC(NC(=O)COc1ccccc1)C(=O)N1CCCCC1 (stereo unspecified)
  11.8, 3.9, -1.1, 5.2, -20.9, 6534, -0.5
CCC(=O)Nc1cccc(C2=NOC3(C2)CC(C(N)=O)N(C(=O)C2(C)CC2)C3)c1 (stereo unspecified)
  2.1, 4.5, ·, 2.0, ·, ·, 5.6
CCn1c(SCC(=O)N/N=C/C=C/c2ccccc2[N+](=O)[O-])nnc1-c1ccccc1
  ·, ·, -0.8, ·, 2.8, 2341, ·
